Source: PubChem BioAssay (Broad Institute)
Tgondii IFNg = blocks Toxoplasma gondii growth in the presence of IFN-gamma. activity change, negative = inhibition, %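 (about 20 µM by stock and volumes)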. Toxoplasma gondii growth in IFN-gamma-treated host cells; active compounds read low; reference of the scale not given here. 69,000 compounds, 3.8% hits;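 active means below -70%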;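 further: host cells are HeLa cells infected with Toxoplasma gondii; parasite growth read as luciferase light; one replicate is shown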
Starred values were filed as active, the others as inactive; i = inactive; & = joins results of further samples. Not all compounds are listed; the hit share may differ from the screen's.

mol,Tgondii IFNg
CC1/C(=C\c2ccc(Cl)cc2)C(=O)C2CC1C2(C)C (stereo not drawn),3.6
CS(=O)(=O)N1CCCC12CCCN(c1cnccn1)C2 (stereo not drawn),88.3
O=C(NC1CCCNC1=O)c1cc(COc2ccc(F)cc2F)[nH]n1 (stereo not drawn),-35.9
Cc1ncc(-c2ccc3c(c2)OCO3)c(-c2cccnc2)n1,0.8
CCOC(=O)C1CCCN(C(=O)c2nc(-c3ccc(C)cc3)n3c2CCCCC3)C1 (stereo not drawn),222.9
CC(=O)Nc1ccccc1SCC(=O)N1CCNC(=O)C1C(C)C (stereo not drawn),3.6
C[C@H]1CCCCO[C@@H](CN(C)C(=O)NC2CCCCC2)[C@@H](C)CN([C@@H](C)CO)C(=O)c2cc(N(C)C)ccc2O1,160.4
O=C(c1ccccc1)C(c1ccccc1)C(Nc1ccc(Cl)cc1)c1ccccc1 (stereo not drawn),11.2
COCCN1C(=O)[C@]2(CC[C@H]3CN(Cc4c(C)noc4C)C[C@H]32)N=C1C,-0.1
CC(C)Nc1nc(NC(N)=O)nc(NC(C)C)n1,-16.3
Cc1cc(NCC2CCCNC2)nc(N2CCCCC2)n1 (stereo not drawn),-8.1
Cc1ccc(C(C)NC(=O)CN2CCN(Cc3ncccc3C)CC2)cc1 (stereo not drawn),0.1
Cc1ccc(S(=O)(=O)N(C)C[C@@H]2Oc3c(NS(C)(=O)=O)cccc3C(=O)N([C@H](C)CO)C[C@@H]2C)cc1,23.0
COc1cc(NC(=O)C2=C(C)C(=O)OC23CCN(S(C)(=O)=O)CC3)cc(OC)c1,94.4
OCc1ccccc1-c1nccc2occc12,-28.7
CC(NC(=O)CCNC(=O)c1ccccc1F)c1ncn[nH]1 (stereo not drawn),5.2
C=CCn1c(Cc2ccc(O)c(Cl)c2)n[nH]c1=S,102.4
Cc1ccsc1C(=O)N1C[C@@H]2COC[C@@]2(COc2cccnc2)C1,-7.1
CN(C)CCNC(=O)c1cc2n(n1)CCN(C(=O)C1CCCNCC1)C2 (stereo not drawn),3.4
COc1cc(OC)c(CN2CCCC(Cn3ccnc3C)C2)c(OC)c1 (stereo not drawn),-2.5
Cc1cc(C(F)(F)F)nc(CCNC(C)Cn2ccnc2)n1 (stereo not drawn),-2.6
COCCC(=O)N1CCO[C@H]2[C@H]1CC[C@H]2OCc1csc(C)n1,-44.1
CC(=O)Nc1ccc(N2C(=O)C3C4c5ccccc5C(c5ccccc54)C3(C)C2=O)cc1 (stereo not drawn),-21.8
CCCCc1cc(C)c2[nH]c(=O)cc(C)c2c1,-87.9*
Cc1n[nH]c(C)c1CCCN(C)C(=O)c1cccs1,-47.5
Cc1ccc(NC(=O)CC(=O)NCCc2cnc[nH]2)cc1Cl,5.8
O=C(O)COc1ccc2occ(C(=O)c3ccccc3)c2c1,23.2
CC(Cn1cncn1)C(=O)N1CCc2onc(-c3cccc(F)c3)c2C1 (stereo not drawn),-3.3
COC(=O)c1c(NCCc2cccs2)c2cccc(Cl)c2[nH]c1=O,-85.7*
C=CCn1ncc(CN2CCC3(CC2)CCN(C(=O)c2ccno2)CC3)c1C,-4.4
CCN1CCOCC12CCN(C(=O)CC1CCCC1)CC2,-16.9
CCNC(=O)NCCC1CN(C2CCCCCC2)CCO1 (stereo not drawn),-36.7
Cc1ccc(C2(O)CCN(C(=O)NCCc3ccc(F)cc3)CC2)nc1,0.9
Cc1nc(-c2ccc(F)cc2)sc1-c1ccc(SCc2ccccc2)nn1,39.2
CCc1ccc(Nc2nc(C(=O)NCc3ccc(OC)cc3OC)nc3ccccc23)cc1,-47.1
CO[C@H](CN(C)C(=O)Nc1ccc(Cl)cc1)[C@@H](C)CN(Cc1ccccc1Cl)[C@H](C)CO,78.5
COc1ccc(NC(=O)c2nc(Nc3ccc(Cl)cc3)c3ccccc3n2)cc1OC,-5.9
Cc1ccc(SC(=O)c2sc(-c3ccc(C(F)(F)F)cc3)nc2C)cc1,39.6
Cc1ccccc1NC(=O)C(=O)NCCc1csc(-c2ccc(Cl)cc2)n1,13.8
CCOc1ncccc1-c1ccc(C(C)NC(C)=O)cc1 (stereo not drawn),7.5
O=C(CSC(=S)N1CCOCC1)N1c2ccccc2CCc2ccccc21,7.8
Cc1cc(C)n(Cc2nc(-c3ccc(NC(=O)c4sccc4C)cc3)oc2C)n1,-57.4
Cc1ccc(-c2nnc(-c3nc(NCc4ccccc4)c4ccccc4n3)o2)cc1,13.1
C[C@H]1CN([C@@H](C)CO)C(=O)CCCn2cc(nn2)CO[C@@H]1CN(C)C(=O)CCC(F)(F)F,126.2
CC(=O)c1c(OC(=O)c2cccc(Br)c2)c2ccccc2n1C,1.4
CO[C@@H]1CCN(C(=O)c2ccnn2C)[C@H]2CN(CC3CC3)C[C@@H]12,33.7
COc1cccc(NC(=O)N2CCC3(CC2)[C@@H]2CN(C(C)=O)C[C@H]2C(=O)N3C)c1,234.7
COc1ccc2c(c1)NC1(CCN(C(=O)Cc3ccccc3)CC1)c1cccn1-2,16.8
CCCNc1ncc(CN2CC[C@@H](N)[C@@H](OC)C2)cn1,-32.3
COc1ccc2[nH]cc(C3CCN(Cc4ccc(Cl)cc4)C3)c2c1 (stereo not drawn),i

Additional results
mol,Tgondii IFNg
Cc1ccc(-c2coc(-c3ccc(NC(=O)Nc4ccc(F)cc4F)cc3)n2)cc1,13.7
O=C(C1CCN(Cc2cc3ccccc3n2Cc2cccc(Cl)c2)CC1)N1CCCC1,-13.8
C/C=C/c1ccccc1[C@@H]1[C@@H](C#N)N(C(C)=O)[C@@H]1CO,20.3
CC(C)(C)c1oc(C(N)=O)cc1CN1CCCC(O)(CO)C1 (stereo not drawn),-41.1
COc1ccccc1C(=O)N1CCN(c2nc(C)nc3ccc(N4CCOCC4)cc23)CC1,16.2
Cc1c(NC(=O)c2cc(-c3ccc(Cl)cc3)on2)cccc1C(=O)N1CCCC1,-4.6
COc1ccccc1OCc1cc(C(=O)O)oc1C,49.7
CCc1cn[nH]c1C1CCN(Cc2cc3c(cc2OC)OCCCO3)CC1,-7.0
O=C1NCC2(CCCN(C(=O)C3(c4ccc(F)cc4)CCOCC3)CC2)O1 (stereo not drawn),56.7
Cc1nc2ccccc2c2nc3ccccc3n12,5.9
Cc1cc(O)c(C(=O)Cc2csc(C)n2)c(O)c1,79.1
C/C=C/c1cnc2c(c1)C(=O)N([C@@H](C)CO)C[C@H](C)[C@H](CN(C)C(=O)Nc1cccc(OC)c1)O2,i
CCN(C(=O)c1cc2cccnc2n(Cc2ccccc2)c1=O)C1CCCCC1,68.1
Cc1cccc(CN2CCC3(CC(NC(=O)c4cnccn4)C3)C2)n1 (stereo not drawn),-2.6
CO[C@H]1C[C@@H]2CC[C@@H](C)[C@@](O)(O2)C(=O)C(=O)N2CCCC[C@H]2C(=O)O[C@H]([C@H](C)C[C@@H]2CC[C@@H](OP(C)(C)=O)[C@H](OC)C2)CC(=O)[C@H](C)/C=C(\C)[C@@H](O)[C@@H](OC)C(=O)[C@H](C)C[C@H](C)/C=C/C=C/C=C/1C,-1.7
CCOC(=O)c1c(CSC2CCCCC2)oc2ccc(O)cc12,-103.8*
CC(=O)N1CC2(C1)[C@H](c1ccccc1)[C@@H](CO)N2C(=O)c1cnccn1,-9.1
COc1ccc(NC(=O)Cn2ncc3c(N4CCC(C)CC4)ncnc32)cc1OC,51.7
OC(CNCc1ccccc1)c1ccccc1 (stereo not drawn),-19.2
Cc1noc(C)c1NC(=O)Nc1ccc2c(c1)C(=O)N(C)[C@@H]1CC[C@@H](CC(=O)N[C@@H]3CCN(Cc4ccccc4)C3)O[C@H]1CO2,7.1
CCc1cccc(NC(=O)CCN2CCN(c3ccncc3)CC2)c1,-32.6
Cc1nn(-c2ccccc2)nc1CNS(=O)(=O)c1cn(C)c(C)n1,-31.9
O=C(NCCc1csc(-c2cccc(F)c2)n1)c1ccccc1F,-21.6
CN(C)S(=O)(=O)N1CCC2(CC1)CN(c1ncccn1)Cc1ccccc12,-32.8
CCC(=O)N1C[C@@H](C)[C@H](OC)CN(C)C(=O)c2cc(NC(=O)Nc3ccc(Cl)cc3)ccc2OC[C@H]1C,186.0
CCN(C)S(=O)(=O)c1csc(C(=O)Nc2ccc(C)cc2)c1,-69.1
O=C(C[C@H]1CC[C@@H]2[C@H](COC[C@@H](O)CN2CCC(F)(F)F)O1)NCC1CC1,0.1
COC(=O)c1cc(C)nc2c1c(=O)n(Cc1nc(-c3ccc(C)cc3)oc1C)c(=O)n2C,5.9
CC1(C)NC(=O)N(Cc2ccc(NC(=O)c3cc4c(F)cccc4[nH]3)cc2)C1=O,-39.5
CCc1ccccc1NC(=O)c1c(O)c2ccccc2n(-c2ccccc2)c1=O,176.5
S=c1[nH]c(=S)c2cnc(N3CCc4ccccc43)nc2[nH]1,76.8
O=C1CCCN1CCOc1ccccc1CN1CCN(C2CCCCC2)C(=O)C1,-14.1
CCOc1ccccc1NC(=O)Cn1c(=O)cc(C(=O)N2CCCC2)c2ccccc21,-52.5
CC(C)c1cccc(NC(=O)Cn2ncc3c(N4CCN(c5ccccn5)CC4)ncnc32)c1,-92.9*
Cc1cccnc1CCNC(=O)C1CCCN(C2CCN(C(=O)C3CC3)CC2)C1 (stereo not drawn),6.7
CCc1noc(CN(CC)C(=O)Cc2cnc3c(C)cccn23)n1,3.1
Cc1c2oc3c(C)ccc(C(=O)OC(C)C4NC(=O)C(C(C)C)N(C)C(=O)CN(C)C(=O)C5CCCN5C(=O)C(C(C)C)NC4=O)c3nc-2c(C(=O)OC(C)C2NC(=O)C(C(C)C)N(C)C(=O)CN(C)C(=O)C3CCCN3C(=O)C(C(C)C)NC2=O)c(N)c1=O (stereo not drawn),-82.7*
Cc1nc2ccc(C(=O)Nc3nncs3)cc2s1,114.6
CCc1ncc(C(=O)NC23CC4CC(C2)CC(n2nnc(C)n2)(C4)C3)cn1,-2.7
CC(C)N1CCN(c2ccc(C(=O)c3c(-c4ccc(O)cc4)sc4cc(O)ccc34)cc2)CC1,-15.8&-10.8
Cc1cccnc1C(O)c1cccc(F)c1N1CCN(Cc2cnc(N(C)C)nc2)CC1 (stereo not drawn),4.7
CCO[C@H]1CN(S(=O)(=O)c2ccccc2)[C@H]2COC[C@@H]12,-59.9
Cn1nccc1C(=O)N1CCC2(CC1)Nc1cc(F)ccc1-n1cccc12,63.0
CN1CCN(C2Cc3ccccc3Sc3ccc(Cl)cc32)CC1 (stereo not drawn),-81.7*
CCOC(=O)c1nc(N(C)c2cc(C)ccc2C)c2ccccc2n1,-35.4
CC(C)[C@@H]1CC=CC[C@H](C)Oc2ccccc2C(=O)N(C)[C@@H](C(C)C)C(=O)N1 (mixture of isomers),-52.7
CN1C(=O)c2cc(NC(=O)C3CCOCC3)ccc2OC[C@@H]2O[C@@H](CC(=O)NCC3CCCCC3)CC[C@@H]21,-0.4
O=C(Nc1ccc(Cl)cc1F)c1nc(Nc2ccccc2)c2ccccc2n1,-4.8
CCN1CC(Cn2cnc(-c3ccccc3)c2-c2ccc(C)c(OC)c2)CC1=O (stereo not drawn),-21.4
COc1ccc(C(=O)NCCc2csc(-c3ccc(F)cc3)n2)cc1,-13.3

Another view of part of the listing above.
> CCN(C)S(=O)(=O)c1csc(C(=O)Nc2ccc(C)cc2)c1
  Tgondii IFNg: -69.1
> Cc1cccnc1CCNC(=O)C1CCCN(C2CCN(C(=O)C3CC3)CC2)C1 (stereo not drawn)
  Tgondii IFNg: 6.7
> CCc1noc(CN(CC)C(=O)Cc2cnc3c(C)cccn23)n1
  Tgondii IFNg: 3.1

Further results:
mol,Tgondii IFNg
O=C(NCc1csc(C2CCN(S(=O)(=O)c3ccccc3F)CC2)n1)C1CCC1,-34.3
Cc1ccccc1-c1cn[nH]c1C1CCN(C(=O)C2(C)CCCO2)CC1 (stereo not drawn),5.8
Cc1cccnc1CN(C)C(=O)c1ccc(S(N)(=O)=O)cc1,0.8
Cc1ccc(OCc2occc2C(=O)N2CCOC(C(F)(F)F)C2)cc1 (stereo not drawn),-1.5
Cc1nc(-c2ccccc2)sc1CCNC(=O)C(=O)Nc1cc(F)ccc1F,59.4
Cc1ccc(CCNC(=O)C2CC(=O)N(C3CC3)C2)cc1C (stereo not drawn),-49.8
COc1cccc(NC(=O)N2CCC3(CC2)CC[C@@]2(C(=O)N4CCCC4)CN(C)C[C@H]32)c1,0.5
CC(C)(C)c1cc(CN2CCCC(CCNS(C)(=O)=O)C2)[nH]n1 (stereo not drawn),12.1
CC(=O)N1[C@H](CO)[C@H](c2ccc(C3=CCCCC3)cc2)[C@@H]1CNC(=O)CN(C)C,-6.4
CCOCC1CN(c2ccc(C)nn2)Cc2ncn(C)c21 (stereo not drawn),-3.7
O=C(c1ccoc1)N1CCc2ncnc(C3CCOC3)c2CC1 (stereo not drawn),77.1
O=S(=O)(Cc1nc(-c2ccsc2)no1)c1ccc(Cl)cc1,-29.7
CC(C)c1ccc2c(c1)CC[C@H]1[C@](C)(CN)CCC[C@]21C,-43.9
Cc1cncc(C(=O)N2CCC3(CC2)CC(NC(=O)c2ccccn2)CO3)c1 (stereo not drawn),-19.7
Cc1cc(C(=O)N2CC[C@@H]3C(=O)NCCO[C@@H]3C2)sc1C,-0.5
O=C(Cc1cccc(F)c1)N1C[C@@H]2CN(CC3CC3)CCO[C@@H]2C1,-21.5
